Assay outcomes: PubChem BioAssay, National Center for Advancing Translational Sciences (NCATS)
GCN5L2 inh: inhibitors of human GCN5L2 histone acetyltransferase; Q92830; GCN5L2 HAT assay, ThioGlo1 CoA-SH fluorescence; Potency, µM (doses to about 58.9 µM), without a hit: top-dose activity change, negative = inhibition, hits mostly inhibitors; 390,000 compounds, 0.21% hits; AID 504327
Target sequence (Q92830 whole entry, looked up): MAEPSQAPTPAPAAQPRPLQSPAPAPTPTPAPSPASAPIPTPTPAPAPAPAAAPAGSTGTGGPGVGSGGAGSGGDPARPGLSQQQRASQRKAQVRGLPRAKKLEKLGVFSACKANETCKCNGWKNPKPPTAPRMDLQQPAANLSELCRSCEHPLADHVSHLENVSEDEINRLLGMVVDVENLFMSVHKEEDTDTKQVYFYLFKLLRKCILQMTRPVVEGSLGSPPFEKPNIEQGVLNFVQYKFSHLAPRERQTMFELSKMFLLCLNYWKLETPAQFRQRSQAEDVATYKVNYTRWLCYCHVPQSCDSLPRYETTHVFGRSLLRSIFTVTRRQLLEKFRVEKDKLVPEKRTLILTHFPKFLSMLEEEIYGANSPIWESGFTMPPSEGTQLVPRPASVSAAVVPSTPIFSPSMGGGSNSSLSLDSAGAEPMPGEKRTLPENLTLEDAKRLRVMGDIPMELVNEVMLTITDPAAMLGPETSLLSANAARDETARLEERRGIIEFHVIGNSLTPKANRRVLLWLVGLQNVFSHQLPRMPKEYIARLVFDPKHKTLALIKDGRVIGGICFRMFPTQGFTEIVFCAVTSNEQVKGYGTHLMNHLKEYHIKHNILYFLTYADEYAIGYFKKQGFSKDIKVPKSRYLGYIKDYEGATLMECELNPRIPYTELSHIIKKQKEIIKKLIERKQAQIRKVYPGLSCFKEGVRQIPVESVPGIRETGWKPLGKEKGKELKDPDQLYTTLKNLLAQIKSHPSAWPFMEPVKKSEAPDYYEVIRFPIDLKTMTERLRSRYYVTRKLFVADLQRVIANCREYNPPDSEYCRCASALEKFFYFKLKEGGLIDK
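Enzyme at 20nM final was mixed with library compounds for 15 min at room temperature. Peptide H3(1-25) at 75uM, acetyl-CoA at 70uM and ThioGlo1 at 50uM were then added. Plates were read immediately and after 20 min (Ex340nm/Em540nm).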
N370S GC mod: inhibitors or activators of N370S glucocerebrosidase for Gaucher disease | Potency, µM (series often up to 59.4 µM), for inactives: at the top dose activity change, negative = inhibition, most hits filed as inhibitors | AID 2101 | N370S GC spleen homogenate, 4MU-glucoside fluorescence | 330,000 compounds, 0.092% hits;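 note: 0% = full enzyme activity and -100% = no enzyme basal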
* hit, by the source's call; u = inconclusive; x = no result given; & = joins results of further samples; [ ] = dose if it differs, or a comment. Calls come from the whole dose curve; as a rule, active = well fitted curve in the direction sought with a large enough effect; inconclusive = small, poorly fitted or top-dose-only effect, or another doubt; inactive = no such curve, though single readings can be large; an effect the other way counts as inactive or inconclusive. Unless noted, % is set by controls: 0 for no effect and ±100 for the full control effect; potency is the fitted concentration of half-maximal effect. These rows are one share of the data, and most or all hits are left out here.

GCN5L2 inh	N370S GC mod	mol
-4%	0%	CCc1nnc(NC(=O)c2ccc(S(=O)(=O)N(CCOC)CCOC)cc2)s1
-4%	4%	C=CCSC1=N/C(=C\c2ccc3c(c2)OCO3)C(=O)S1
3%	x	O=C(COC(=O)c1n[nH]c2ccccc12)NCCc1ccccc1
-21%	5%	CCCCCC(O)CCc1n[nH]c(=S)n1-c1ccccc1 (stereo not drawn)
-3%	-4%	Cc1ccc([C@@H]2[C@@H]3C(=O)N(C)C(=O)[C@@H]3[C@]3(C)C(=O)N(Cc4ccccn4)CC(=O)N23)o1
0%	-22%	CC1CCN(Cc2nnnn2CCCC(=O)N(C)C2CCOC2)CC1 (stereo not drawn)
-3%	-9%	Cc1ccccc1N1C(=O)C(Oc2ccc(Cl)cc2)C1CNCC1CCCO1 (stereo not drawn)
-6%	28%	c1ccc(CCNc2ncnc3c2cnn3-c2ccccc2)cc1
-5%	12%	Cc1ccc(S(=O)(=O)/N=C(\c2ccccc2)N(C)S(=O)(=O)c2ccccc2)cc1
-9%	-5%	O=S(=O)(Nc1ccc(F)cc1Cl)c1ccc(-c2cnc(C3CC3)o2)cc1
-2%	-8%	O=C(NCc1ccc(F)cc1)C1CCN(C(=O)Nc2ccc(F)cc2)CC1
-9%	-15%	O=C(NCC1CCCN(C(=O)Cc2ccccc2Cl)C1)c1ccc(F)cc1 (stereo not drawn)
-16%	8%	CCn1nnc(NC(=O)CSc2ccc(Cl)cc2)n1
1%	-5%	CCc1ccccc1NC(=O)NC1CCCCCCC1
-2%	1%	COc1cccc(NC(=S)N2CCN(Cc3ccccc3)CC2)c1
2%	-2%	COc1cc(OC)c(-c2cc(C(=O)O)ccc2OC)c(OC)c1
0%	-9%	CC(=O)c1c(C)nc(-c2ccccc2)n1O
-8%	2%	CCCS(=O)(=O)N1CCN(Cc2ccc([N+](=O)[O-])cc2)CC1
-16%	-17%	CC(C)C[C@@H](CO)N1CCN(CCc2ccccc2)CCC1=O
-16%	16%	COc1cc(COCC(O)CN2CCN(Cc3ccc4c(c3)OCO4)CC2)cc(OC)c1OC (stereo not drawn)
-12%	-6%	Brc1ccc(CSc2ccc3nnc(-c4cccnc4)n3n2)cc1
-4%	x	O=C(CSc1nc2ccccc2c(=O)n1CCCN1CCOCC1)Nc1ccc(F)c(Cl)c1
-11%	3%	c1ccc2c(c1)ncn2-c1ccc(-c2ccnc(-c3ccncc3)n2)cc1
-1%	2%	O=C(Nc1ccc2c(c1)nc1n2CCCCC1)c1cc(S(=O)(=O)N2CCOCC2)ccc1Cl
-18%	6%	Cc1nnc2ccc(-c3ccc(NC(=O)c4ccco4)cc3)nn12
-7%	0%	Cn1c(=O)c2c(nc(CN3CCC(C(N)=O)CC3)n2CCCc2ccccc2)n(C)c1=O
-1%&-17%	-9%	Cc1ccc(Cn2ccnc2SCC(=O)NC2CCCC2)cc1
-2%	18%	COc1cc(-c2cc3nc4ccccc4n3c(N)c2C#N)cc(OC)c1OC
4%	-4%	Cc1cc(-c2nc3ncccc3o2)ccc1NC(=S)NC(=O)c1ccco1
3%	-4%	COC(=O)C1CN(C(=O)C(C)Oc2ccc(F)cc2)c2ccccc2O1 (stereo not drawn)
-3%	8%	COc1ccc(NC(=O)COc2ccccc2)c(OC)c1
-3%	2%	COc1ccc(OCC(=O)N/N=C/c2ccc(O[C@@H]3O[C@H](CO)[C@@H](O)[C@H](O)[C@H]3O)cc2)cc1
-1%	-1%	CC(=O)c1c(C(C)=O)c(C)n(NC(=O)c2ccccc2O)c1C
1%	6%	Cc1cccc(NC(=O)Cc2coc3ccc4ccccc4c23)n1
3%	x	Cc1ccc(Cl)cc1N1CCN(C(=O)c2cnc3c(-c4ccc(F)cc4)c(C)nn3c2C)CC1
-7%	x	CCCS(=O)(=O)N1CC(=O)N(c2cccc(F)c2)C(C)(C(=O)NC2CCCCCC2)C1 (stereo not drawn)
x	-8%	CCCC[C@@H]1CCCO[C@@](C(=O)NCc2ccccn2)(C(F)(F)F)C1
-7%	26%	COc1ccc(CNC(=O)c2cnc(C)cn2)cc1
-5%	7%	CC(OC(=O)CNC(=O)c1ccc(Cl)c(Cl)c1)C(=O)N1CCOCC1 (stereo not drawn)
-6%	1%	O=C(CNC(=O)c1ccccc1F)NCCCN1CCCC1=O
-26%	1%	CC(C)OC(=O)c1cc2ccccc2oc1=O
-11%	-1%	CCCC#CCN1CCN(C23CC4CC(CC(C4)C2)C3)CC1
u	3%	Cc1cc(C)c(N=Cc2c(O)c3ccccc3oc2=O)c(C)c1
-4%	-6%	CCCN1CCN(CCCNC(=O)CCN2C(=O)COc3ccccc32)CC1
-3%	-5%	Cc1ccccc1C(=O)Oc1cc(N)n(S(C)(=O)=O)n1
-1%	12%	Cc1ccc(C(=O)NC(NC(=O)c2ccc(C)cc2)c2cccc([N+](=O)[O-])c2)cc1
-2%	x	CC(=O)N1CCc2c(sc3c2c(=O)n(-c2ccccc2)c(=O)n3CC(=O)c2ccc(Cl)cc2)C1
-3%[0.501 µM]	-2%	COc1ccccc1CNC(=O)C1CCN(C(=O)N(C)C)CC1
2%	1%	CCCCOC(=O)Nc1ccccc1C(=O)OC
-1%	18%	COc1ccc(CC(=O)OCc2cc3cccc(C)c3[nH]c2=O)cc1

Next records follow.
GCN5L2 inh	N370S GC mod	mol
-3%	x	O=C(CSc1nc(O)c(C/C=C/c2ccccc2)c(=O)[nH]1)Nc1cccc(F)c1
u	-3%	CC(=O)Nc1ccc(O)c(-c2nc3ccccc3s2)c1
-2%	-24%	CC(C)(C)n1nc2c(c1NC(=O)c1ccc(C(F)(F)F)cc1)CS(=O)(=O)C2
-18%	-3%	CC(C)Nc1nc(Cl)nc(N(C#N)CN2C(=O)c3ccccc3S2(=O)=O)n1
u	2%	CS(=O)(=O)c1ccc(NC(=O)C2CC(=O)N(c3ccc4c(c3)OCCO4)C2)cc1 (stereo not drawn)
-3%	-2%	O=C(CN1CCN(CC(=O)Nc2ccccc2Cl)CC1)NCC1(N2CCOCC2)CCCCC1
-6%	x	COc1ccc(C2=CC(=O)C[C@H](c3ccc(OC)c(OC)c3)C2)cc1
0%	0%	Nc1sc2c(c1C(=O)NC1CCS(=O)(=O)C1)CCC2 (stereo not drawn)
-7%	-14%	C/C(=N\NC(N)=S)C1(C)CCCCC1
u	2%	O=C(CCc1nnc2ccc(NCc3ccco3)nn12)N1CCN(c2ccccc2)CC1

Fetched one by one from the list above, 2 records:
GCN5L2 inh	N370S GC mod	mol
u	-3%	CC(=O)Nc1ccc(O)c(-c2nc3ccccc3s2)c1
u	2%	CS(=O)(=O)c1ccc(NC(=O)C2CC(=O)N(c3ccc4c(c3)OCCO4)C2)cc1 (stereo not drawn)

Other records follow:
GCN5L2 inh	N370S GC mod	mol
-13%	-15%	CCN(Cc1ccc(OC)c(F)c1)C(=O)c1oc2ccccc2c1COC
-3%	-6%	COC(CNC(=O)c1ccc2c(c1)ncn2-c1cccc(C)c1)OC
-6%	8%	CCOC(=O)c1c(/N=C/C2=C(O)CC(C)(C)CC2=O)sc2c1CCCC2
-13%	-5%	Clc1ccc(C(c2nnnn2C2CCCC2)N2CCN(Cc3ccncc3)CC2)cc1 (stereo not drawn)
-3%	-2%	CCc1nnc(NC(=O)CSc2nc(N)c(NC(=O)c3ccc(OC)cc3)c(=O)[nH]2)s1
-4%&-7%	2%&9%	CC(=O)Nc1cccc(NC(C)=O)n1
3%	3%	COc1ccc(-c2nnc(SCC(=O)Nc3cc(F)ccc3C)o2)cc1
-4%	7%	CC(C)c1ccc(N2C(=O)CSC23C(=O)N2CCCc4cccc3c42)cc1 (stereo not drawn)
-7%	-2%	O=C(CNC(=O)c1nc[nH]c1C(=O)N1CCN(c2ccccc2)CC1)OCc1ccccc1
-7%	-4%	O=C(c1ccccc1)N1CCN(CC(O)COc2cccc3ccccc23)CC1 (stereo not drawn)
-2%	x	O=C(CNC(=O)C1CC(=O)N(c2cccc3ccccc23)C1)Nc1ccccc1Br (stereo not drawn)
-5%	3%	CC(=O)NCc1ccc(S(=O)(=O)NC2CCN(Cc3ccccc3)CC2)cc1
3%	0%	CCCN(C(=O)c1ccc(N2CCCC2=O)cc1)c1c(N)n(Cc2ccccc2)c(=O)[nH]c1=O
-4%	10%	O=C(NC(=S)Nc1ccc(CN2CCCCC2)cc1)c1ccco1
-12%	-7%	O=C(COc1ccc2c3c(c(=O)oc2c1)CCCC3)N[C@@H](Cc1ccccc1)C(=O)O
-5%	6%	O=C(CSc1ccccc1C(=O)O)NCC1CCCCC1
u	2%	O=C1[C@H]2[C@@H](/C=C/c3ccccc3)N3C(=O)CN(CCO)C(=O)[C@@]3(Cc3ccccc3)[C@H]2C(=O)N1c1ccccc1
-1%	x	O=C(CCc1nc(-c2ccccc2)no1)NCc1ccccc1CN1CCOCC1
-10%	-9%	CC1=C(C(=O)Nc2ccc(C(=O)N3CCN(c4cccc(Cl)c4)CC3)cc2)SCCO1
-8%	-18%	O=C(N/N=C/c1ccoc1)c1ccccc1F
1%	4%	COC(=O)c1ccccc1CCC(C)=O
0%	2%	C=CCn1c(SCC(=O)Nc2cccc(C)c2)nnc1-c1cnccn1
0%	-6%	O=C(CNc1ccc2ccccc2c1)N/N=C/c1ccc(C(=O)O)cc1
34%[activator]	-21%	CC1CCN(CCCNC(=O)C2CCC(=O)N2C2CCCC2)CC1 (stereo not drawn)
-10%	-5%	CCCN1CCN(S(=O)(=O)c2ccc3c(c2)NC(=O)C(C)S3)CC1 (stereo not drawn)
-1%	5%	O=C(Nc1ccc2c(c1)OCO2)N1CCN(S(=O)(=O)c2ccc(Cl)cc2)CC1
-4%	-8%	COc1ccc(NC(=O)c2ccccn2)cc1OC
-1%	x	CCCc1cc(C(=O)Nc2c(C)nn(Cc3ccc(C)cc3)c2C)no1
0%	0%	N#Cc1ccc2[nH]cc(CCO)c2c1
1%	1%	CC(=O)Nc1cccn(Cc2c(Cl)cccc2Cl)c1=O
-7%	-2%	O=C(CCc1ccccc1)N1CCN(c2ccccn2)CC1
-17%	-24%	CC1CCc2[nH]c3ccc(C(=O)N4CCCC(C(F)(F)F)C4)cc3c2C1 (stereo not drawn)
-6%	8%	CCc1nnc(NC(=O)c2cc(S(=O)(=O)N3CCOCC3)ccc2N2CCCCC2)s1
0%	9%	CNC(=O)c1ccc(-c2ccc(OC)cc2)s1
-3%	5%	O=C(NCCc1ccccc1)c1ccccc1NS(=O)(=O)N1CCCC1
-6%	25%	O=C(COc1cccc2cccnc12)N/N=C1\SCC(=O)N1Cc1ccccc1
2%	4%	N#CC1=C(N)Oc2nc(-c3ccccc3)[nH]c2C1c1cccnc1 (stereo not drawn)
-14%	16%	O=C(Nc1ccccc1C(F)(F)F)N1CCCC(O)C1 (stereo not drawn)
-9%	x	CCc1ccccc1N1C(=O)CN(S(=O)(=O)CC)CC1(C)C(=O)NC1CCCCC1 (stereo not drawn)
-9%	7%	CC(=O)NNc1cc(=O)c2c(=O)n(C)c(=O)n(C)c2[nH]1
-4%	-2%	CCCOc1ccc(C(=O)OCC(=O)c2c(N)n(C)c(=O)n(C)c2=O)cc1OCC
1%	3%	CC(=O)c1ccc(N2CCN(C(=O)CCN3C(=S)NC(C)(C)CC3C)CC2)cc1 (stereo not drawn)

An excerpt from above in order of number of heavy atoms, low to high.
GCN5L2 inh	N370S GC mod	mol
0%	0%	N#Cc1ccc2[nH]cc(CCO)c2c1
-26%	1%	CC(C)OC(=O)c1cc2ccccc2oc1=O
-7%	26%	COc1ccc(CNC(=O)c2cnc(C)cn2)cc1
1%	-5%	CCc1ccccc1NC(=O)NC1CCCCCCC1
-21%	5%	CCCCCC(O)CCc1n[nH]c(=S)n1-c1ccccc1 (stereo not drawn)
-8%	2%	CCCS(=O)(=O)N1CCN(Cc2ccc([N+](=O)[O-])cc2)CC1
-1%&-17%	-9%	Cc1ccc(Cn2ccnc2SCC(=O)NC2CCCC2)cc1
-10%	-5%	CCCN1CCN(S(=O)(=O)c2ccc3c(c2)NC(=O)C(C)S3)CC1 (stereo not drawn)
x	-8%	CCCC[C@@H]1CCCO[C@@](C(=O)NCc2ccccn2)(C(F)(F)F)C1
-3%	5%	O=C(NCCc1ccccc1)c1ccccc1NS(=O)(=O)N1CCCC1
-9%	-15%	O=C(NCC1CCCN(C(=O)Cc2ccccc2Cl)C1)c1ccc(F)cc1 (stereo not drawn)
-2%	18%	COc1cc(-c2cc3nc4ccccc4n3c(N)c2C#N)cc(OC)c1OC
-7%	-4%	O=C(c1ccccc1)N1CCN(CC(O)COc2cccc3ccccc23)CC1 (stereo not drawn)
-9%	x	CCc1ccccc1N1C(=O)CN(S(=O)(=O)CC)CC1(C)C(=O)NC1CCCCC1 (stereo not drawn)
-3%	-2%	CCc1nnc(NC(=O)CSc2nc(N)c(NC(=O)c3ccc(OC)cc3)c(=O)[nH]2)s1
-4%	x	O=C(CSc1nc2ccccc2c(=O)n1CCCN1CCOCC1)Nc1ccc(F)c(Cl)c1
-16%	16%	COc1cc(COCC(O)CN2CCN(Cc3ccc4c(c3)OCO4)CC2)cc(OC)c1OC (stereo not drawn)
